Six1-Eya2 blk – blocks human Six1 binding to Eya2 | Q15475+O00167 | AlphaScreen GST-Six1/His-Eya2 binding, biochemical; stronger effect = lower value; control for the full effect not named in the record | activity change, % (test concentration not listed) | 360,000 compounds, 0.56% hits | AID 651725; in the data active = activity change below about -65%; inconclusive = about -30% to -65%; inactive = above about -30%; further: on the % scale 0 is the no-effect control and ±100 the full control effect
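Six1/Eya2 binding was read as AlphaScreen signal after compounds were pinned into GST-Six1 plus His-tagged Eya2 (5X stock 250/500 nM) in pH 8.0 Tris/NaCl/TCEP buffer, beads added, then incubated 1 h, 37 C, dark.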
TRPML1 ag – activates the human TRPML1 channel; Q9GZU1; TRPML1-expressing cells, Ca2+ dye fluorescence, FDSS; host cell line not named in the record; reference of the full effect not given here; activation, % (test concentration not listed); AID 624414; 410,000 compounds, 0.12% hits; in the data active = activation above about 50%; inconclusive = about 30% to 50%; inactive = below about 30%; further: 0% is about no effect; the text of the record puts the active cut at 80%
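Cells: TRPML1-DL, 1X Tet inducer, ~16 h at 37 degrees C/5% CO2. Dye: ABD Ca8 no-wash + quencher, 45-90 min RT. Read: 10 s baseline, compound add, 110 s agonist phase; 54-4 EC80 (4uM final), 110 s antagonist phase.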
D2 potentiator – potentiates the human D2 dopamine receptor allosterically. DiscoveRx D2 beta-arrestin cells, luminescence, 90 min; 100% = 57 uM dopamine signal. P14416. potentiation, % (no concentration beside the values). 360,000 compounds, 0.23% hits; active = potentiation of 50% or more; inconclusive = 30% to 50%; inactive = 30% or less;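 further: compound concentration not given in the record; tested on top of an EC20 dose of dopamine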
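D2 cells co-treated with compound plus 50 nM dopamine (EC20) for 90 min at 37 deg C to detect potentiation. Beta-arrestin recruitment was read as enzyme-fragment luminescence after 1 h at ambient temperature. Full response was set by 57 uM dopamine.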
TRPML1 inh – human mucolipin-1 channel inhibition. AID 624415. 390,000 compounds, 0.02% hits. Q9GZU1. activity change, negative = inhibition, % (test concentration not listed). TRPML1-inducible cells, Ca2+ dye fluorescence, FDSS; stronger effect = lower value; inhibition of EC80 agonist-evoked calcium signal; in the data active means activity change below about -50%; inconclusive means about -30% to -50%; inactive means above about -30%;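 further: stimulus is agonist 54-4 at its EC80 concentration; on the % scale 0 is the no-effect control and ±100 the full control effect; compound concentration not given in the record; the text of the record puts the active cut at -80%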
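TRPML1-DL cells, Tet-induced overnight (~16 h, 37 °C) at 1,500 cells/well, were loaded with Ca8 no-wash dye plus quencher for 45-90 min at room temperature. Compounds were pinned during FDSS kinetic reading; agonist 54-4 at EC80 (4 uM final) then added.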
CtBP-E1A blk – blocks the CtBP interaction with E1A | AlphaScreen GST-E1A/His-CtBP binding, 1536-well; stronger effect = lower value; control for the full effect not named in the record | activity change, % (concentration not given with the values) | 340,000 compounds, 0.49% hits; in the data active means activity change below about -65%; inconclusive means about -30% to -65%; inactive means above about -30%; further: on the % scale 0 is the no-effect control and ±100 the full control effect
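Homogeneous bead-based format: GST-tagged E1A captured on glutathione donor beads, His-tagged CtBP on nickel acceptor beads; compounds precede bead addition by 2 h at 37 °C.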
TRPV1 potentiator – enhances activation of the human vanilloid receptor TRPV1; 320,000 compounds, 0.02% hits; potentiation, % at 8.33 µM; AID 540277; TRPV1-expressing cells, Fluo-8 calcium influx, capsaicin EC20 potentiation; host cell line not named in the record; control for the full effect not named in the record; Q8NER1; active means potentiation above 80%; inconclusive means 30% to 80%; inactive means below 30%; further: 0% is about no effect
Target sequence (Q8NER1 whole entry, looked up): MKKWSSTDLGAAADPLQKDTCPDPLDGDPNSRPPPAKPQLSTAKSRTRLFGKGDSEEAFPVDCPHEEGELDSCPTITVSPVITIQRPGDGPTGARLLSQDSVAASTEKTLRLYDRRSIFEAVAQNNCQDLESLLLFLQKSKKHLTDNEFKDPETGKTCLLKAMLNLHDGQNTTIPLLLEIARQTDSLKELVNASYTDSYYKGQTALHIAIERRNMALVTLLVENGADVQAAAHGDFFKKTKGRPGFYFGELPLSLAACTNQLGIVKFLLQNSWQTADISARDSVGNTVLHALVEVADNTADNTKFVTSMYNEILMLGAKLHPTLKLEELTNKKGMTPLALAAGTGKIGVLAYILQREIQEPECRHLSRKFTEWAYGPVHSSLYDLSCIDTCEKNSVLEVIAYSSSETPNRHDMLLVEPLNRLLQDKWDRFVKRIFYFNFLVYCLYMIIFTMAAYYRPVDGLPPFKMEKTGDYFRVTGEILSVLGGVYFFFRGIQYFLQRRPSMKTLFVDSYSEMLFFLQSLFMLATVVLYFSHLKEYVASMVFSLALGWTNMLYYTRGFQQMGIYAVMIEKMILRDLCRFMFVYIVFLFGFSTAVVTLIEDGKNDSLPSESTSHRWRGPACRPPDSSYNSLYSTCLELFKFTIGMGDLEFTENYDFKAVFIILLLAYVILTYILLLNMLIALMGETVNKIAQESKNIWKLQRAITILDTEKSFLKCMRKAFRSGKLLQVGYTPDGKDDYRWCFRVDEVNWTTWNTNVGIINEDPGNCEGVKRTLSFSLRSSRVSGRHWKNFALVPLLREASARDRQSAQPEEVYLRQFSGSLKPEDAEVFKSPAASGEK
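TRPV1-expressing cells were cultured overnight at 35.5C and loaded with Fluo-8 calcium dye for 40 to 90 min at room temperature. After a 10 s baseline, compound was added and calcium influx was read kinetically for 3 min (ex 480/em 520 nm).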
* marks the source's active call; other numbers are inactive results; ? = inconclusive; nt = not tested or not shown; & = joins results of further samples.

SMILES	Six1-Eya2 blk	TRPML1 ag	D2 potentiator	TRPML1 inh	CtBP-E1A blk	TRPV1 potentiator
CCCC(O)(c1ccc(Cl)cc1)C(CN1CCOCC1)c1ccc(Cl)cc1 (stereo not drawn)	-4	1.0	0	36	0	-1
O=C(O)c1ccc(NC(=O)c2cn(-c3ccccc3)nc2-c2ccc(F)cc2)cc1	1	-0.6	7	14	0	0
O=C(COC(=O)CCNS(=O)(=O)c1cccs1)Nc1cc(C(F)(F)F)ccc1Cl	-7	-0.7	-2	-8	-10	22
Cc1ccnc(N/N=C/c2ccco2)n1	-2	-0.2	-12	7	2	0
COc1ccc(NC2=NCCCCC2)cc1	4	-0.1	-7	1	0	12
CC1=CCC2C(=O)N(c3ccc(C)c(Br)c3)C(=O)C2C1 (stereo not drawn)	17	0.0	-4	-2	0	-5
COC(=O)c1cn(C(=O)c2ccccc2F)nc1N	4	0.0	-13	-6	10	11
CS(=O)(=O)N(CC(=O)Nc1ccc2c(c1)OCO2)Cc1ccccc1	-1	0.1	-11	-4	8	2
C/C(=N/Nc1ccc(C(=O)O)cc1)c1ccc(O)c(O)c1O	?	-0.4	85*	12	-21	9
CN(C)C(CNC(=O)CSc1nc2sc3c(c2c(=O)n1C)CCC3)c1ccccc1 (stereo not drawn)	5	-0.1	-24	-8	11	1
Cc1ccc(O)c(-c2cc(C(=O)Nc3ccc(S(=O)(=O)Nc4nc(C)cc(C)n4)cc3)[nH]n2)c1	-12	1.7	-3	-7	-18	2
CCNC(=O)c1ccccc1NC(=O)c1cccc(S(=O)(=O)N2CCOCC2)c1	-1	0.4	-27	-1	-1	-9
C/C(=C\c1ccccc1)CN1CCN(c2ccccc2F)CC1	20	2.9	-10	-15	22	-6
CCc1nnc(NC(=O)CSc2nnc(Cc3cc(=O)[nH]c(=O)[nH]3)n2-c2ccc(OC)cc2)s1	4	-0.7	-5	8	-5	12
CCCCCCN1C[C@@H](O)[C@H](n2cc(-c3ccc(F)cc3)nn2)C[C@@H]1c1ccc(C)cc1	0	1.7	-1	6	-1	nt
Cc1ccc(NC(=O)N2CCCC2C(=O)Nc2ccc3c(c2)OCCO3)cc1 (stereo not drawn)	11	0.0	-3	-15	9	2
COc1ccc(NC(=O)CS(=O)(=O)c2ccccc2)cc1	-1	0.6	-4	2	-1	-7
COCCCNC(=O)CNC(=O)c1nn(-c2ccc(OC)c(Cl)c2)c(=O)c2ccccc12	3	0.7	-3	11	nt	18
CSc1ccccc1OCc1cc(C(=O)N2CCN(C)C(c3ccccc3)C2)no1 (stereo not drawn)	13	1.4	-18	1	0	nt
CC1CCN(S(=O)(=O)c2cccc(C(=O)NCc3cccs3)c2)CC1	1	0.9	5	-10	2	-2

Arranged by number of heavy atoms (largest number first): part of the list above.
SMILES	Six1-Eya2 blk	TRPML1 ag	D2 potentiator	TRPML1 inh	CtBP-E1A blk	TRPV1 potentiator
Cc1ccc(NC(=O)N2CCCC2C(=O)Nc2ccc3c(c2)OCCO3)cc1 (stereo not drawn)	11	0.0	-3	-15	9	2
CC1CCN(S(=O)(=O)c2cccc(C(=O)NCc3cccs3)c2)CC1	1	0.9	5	-10	2	-2
C/C(=C\c1ccccc1)CN1CCN(c2ccccc2F)CC1	20	2.9	-10	-15	22	-6

Rewritten bar-delimited: four of the compounds above
structure | Six1-Eya2 blk | TRPML1 ag | D2 potentiator | TRPML1 inh | CtBP-E1A blk | TRPV1 potentiator
CCCCCCN1C[C@@H](O)[C@H](n2cc(-c3ccc(F)cc3)nn2)C[C@@H]1c1ccc(C)cc1 | 0 | 1.7 | -1 | 6 | -1 | nt
Cc1ccc(NC(=O)N2CCCC2C(=O)Nc2ccc3c(c2)OCCO3)cc1 (stereo not drawn) | 11 | 0.0 | -3 | -15 | 9 | 2
COc1ccc(NC(=O)CS(=O)(=O)c2ccccc2)cc1 | -1 | 0.6 | -4 | 2 | -1 | -7
COCCCNC(=O)CNC(=O)c1nn(-c2ccc(OC)c(Cl)c2)c(=O)c2ccccc12 | 3 | 0.7 | -3 | 11 | nt | 18

New compounds follow.
SMILES	Six1-Eya2 blk	TRPML1 ag	D2 potentiator	TRPML1 inh	CtBP-E1A blk	TRPV1 potentiator
COc1cccc2oc3cc(C#Cc4ccccn4)ccc3c(=O)c12	-21	-1.0	-2	-7	-13	2
O=C(CSc1nc2ccc(NC(=O)c3ccccc3C(=O)O)cc2s1)Nc1ccc(F)c([N+](=O)[O-])c1	-7	0.2	-3	1	-6	25
Cc1ccc(NC(=O)CS(=O)CC(=O)N(CC(=O)NC2CCCC2)c2cc(C)ccc2C)cc1 (stereo not drawn)	4	4.3	-17	7	0	3
Cc1ccc(S(=O)(=O)NC(=O)Nc2ccc(Cl)cn2)cc1	1	0.2	-3	-9	-5	-8
CN(C)/C=C/C(=O)/C=C/c1ccc(Cl)cc1	-2	-0.6	-7	44	nt	-15
C[C@H](O)[C@@H]1C(=O)N2CCc3ccc(-c4cccc(F)c4)cc3[C@@H]2C[C@@H]1N(C)C(=O)Nc1ccccc1	0	1.8	1	-13	0	nt
COc1cccc(N2CC(NC(=O)c3cccc4ccccc34)CC2=O)c1 (stereo not drawn)	-4	2.9	-3	21	0	0
COc1ccc(OC)c(NC(=O)CN2C(=O)c3ccccc3S2(=O)=O)c1	1	-0.7	-5	1	-2	-2
CCOc1cccc(C(=O)NC(=S)Nc2ccc(N3CCCC3)cc2)c1	-17	-0.4	5	-4	-11	-6
CCOC(=O)c1ccc(N2C=C(C(=O)OC)C(c3ccc(OC)c(O)c3)C(C(=O)OC)=C2)cc1	1	0.6	-12	-13	0	9
COC(=O)C(C)Sc1nc(N)c(NC(=O)c2ccco2)c(=O)[nH]1 (stereo not drawn)	1	0.1	-3	-9	5	3
Cc1ccc(NC(=O)CSc2nc3[nH]ncc3c(=O)[nH]2)cc1Cl	-15	-0.6	-5	-9	0	11
CCN(CC)CCNC(=O)c1cn(CC)c2ccc(S(=O)(=O)N3CCc4ccccc4C3)cc2c1=O	-1	1.0&-1.0	-12	17&21	2	-5
COCCNc1nc2cc(-c3ccc(F)cc3)sc2c(=O)n1C	4	-0.5	2	nt	1	nt
CONC(=O)Nc1ccccc1[N+](=O)[O-]	-6	-0.1	-10	7	0	?
CC(C)(C)c1cc(NC(=O)c2cccnc2)no1	1	2.2	-13	12	1	-5
CCOc1ccc2nc(NC(=O)C(CCSC)NS(=O)(=O)c3cccs3)sc2c1 (stereo not drawn)	-11	0.5	9	-4	2	6
COc1ccc(NC(=O)c2ccccc2N(Cc2ccccc2)S(C)(=O)=O)cc1	2	0.6	-11	-11	6	1
O=C(NCc1cccs1)c1ccc(S(=O)(=O)N2CCCCC2)cc1	1	-0.5	0	48	3	-18
Cc1cc(C)nc(NC(=O)/C=C/c2ccc(Cl)cc2Cl)c1	6	4.1	6	-4	2	4
O=C(OC1CSc2nc3ccccc3n2C1)c1ccco1 (stereo not drawn)	-1	-1.1	16	-7	0	17
Fc1ccc(CNCc2ccc(Br)cc2)cc1	20	1.4	-40	-4	10	-6
COc1cc2cc(C(c3nnnn3C3CCCCC3)N(C)C3CCCCC3)c(=O)[nH]c2cc1OC (stereo not drawn)	-2	3.0	-14	42	-5	-11
Cc1ccc(S(=O)(=O)N(C)c2nc3ccccc3n3c(C(C)C)nnc23)cc1	6	2.5	-6	26	nt	12
Cc1ccc(S(=O)(=O)N2CCOC2CNC(=O)C(=O)NCc2ccco2)cc1 (stereo not drawn)	-4	-0.5	-4	9	2	-22
Cc1ccsc1-c1cc2nc(NCCCN(C)C)n(C)c(=O)c2s1	8	0.1	-13	nt	-4	nt
CC1(C)OCC(C2CC(c3ccccc3)NS(=O)(=O)O2)O1 (stereo not drawn)	5	-0.1	-8	?	2	2
Cc1ccccc1OCC(=O)NC(=S)Nc1ccccc1N1CCN(S(C)(=O)=O)CC1	-8	0.6	2	70	-2	-18
CN(NC(=O)/C=C/C(=O)O)c1ncc(C(F)(F)F)cc1Cl	9	0.1	-8	1	2	8
CC(C)Oc1cccc(C(=O)Nc2ccc(N3CCN(C)CC3)cc2)c1	-2	-0.5	-8	5	nt	0
OCCCNc1ncnc2c1ncn2[C@H]1CN(Cc2cccs2)C[C@@H](CO)O1	-1	0.1	-8	-1	5	nt
COc1ccc(NC(=O)C2CCN(S(C)(=O)=O)CC2)cc1	4	0.6	8	-9	8	-1
COC1=CC(=O)C=C(OC)C1=O	3	0.8	-41	-6	2	nt
Cc1cc(C)c[n+](CC(=O)c2ccccc2)c1	9	0.1	-5	0	1	17
O=C(CSc1nc2sccc2c(=O)[nH]1)N1CCN(c2ccccc2)CC1	0	1.6	0	-2	-2	7
CCNC(=O)C(=O)Nc1ccc2c(c1)N(S(=O)(=O)c1cccs1)CCC2	2	0.9	-12	14	2	-8
CC1CCc2c(sc3ncnc(SC(C)C(=O)NCC4CCCO4)c23)C1 (stereo not drawn)	4	0.3	-68	-13	0	6
CCn1c2ccccc2c2cc(/C=N/NC(=O)c3ccccc3)ccc21	-4	1.5	4	15	-7	9
CC(=O)N(c1ccccc1)c1c(F)c(F)c(F)c(F)c1F	6	0.6	-2	-5	-8	20
CCCCCOC(=O)c1ccc(N2C(=O)C3C4C=CC(C4)C3C2=O)cc1 (stereo not drawn)	9	0.4	0	-13	6	4
CC(=O)Nc1cccc(NC(=O)CSc2ccc(-c3cccnc3)nn2)c1	-1	-0.5	3	8	1	6
Cc1ccc(N(C(=O)c2csnn2)C(C(=O)NC2CCCC2)c2ccccn2)c(C)c1 (stereo not drawn)	-4	0.2	-10	2	-10	-5
CC1CCC(=C(C#N)c2nc(-c3cc4ccccc4oc3=O)cs2)CC1 (stereo not drawn)	7	-0.4	3	-4	-1	9
O=C(O)c1cccc(CN2C(=O)S/C(=C/c3cccc([N+](=O)[O-])c3)C2=O)c1	-13	nt	2	nt	0	14
O=C(CCn1cccc1)NCc1ccc(Cl)cc1	-11	3.8	4	16	-5	-2
CC(C)c1ccc(S(=O)(=O)N2CCC(C(=O)N3CCN(c4cccc(Cl)c4)CC3)CC2)cc1	-10	1.0	-1	-7	-5	nt
CCCCCCCCCCOC(=O)Cn1c(COc2ccccc2C)[n+](C)c2ccccc21	-3	-0.1	-2	47	-2	8
COc1cc(CCC(=O)NNC(=O)c2ccc(C)cc2)cc(OC)c1OC	3	-0.3	2	-9	-1	0
CCN1CCN(C(=S)c2ccc(OCC(=O)Nc3ccc(OC)cc3)cc2)CC1	6	-0.6	-2	10	-4	nt
CCOC(=O)/C(=N/Nc1ccccc1)Sc1nnc(CCc2ccccc2)n1-c1ccccc1	14	2.8	-18	-2	-5	-26
Cc1nc(-c2ccc([N+](=O)[O-])cc2)sc1C(=O)O	0	0.2	8	-10	-9	3
C1CNC(C23CC4CC(CC(C4)C2)C3)=N1	6	0.6	-6	-8	6	-2
COc1ccc(CN(C(=O)c2ccco2)c2ccccc2)cc1	4	0.4	5	-5	7	-12
NS(=O)(=O)c1ccc(CCNc2ccn3nc(-c4ccccc4)cc3n2)cc1	?	0.1	11	nt	?	nt
O=[N+]([O-])c1ccccc1SN(Cc1ccccc1)c1ccccn1	-27	0.6	-4	-3	-17	-5
COc1ccccc1-n1ccnc(SCC(=O)NC2CCCCC2)c1=O	0	0.6	-20	-2	-7	-28
